# TRPC4 agonist: activators of mouse TRPC4 channel, primary screen, Fluo4 calcium, HEK293 TRPC4beta/mu-opioid cells | Fluo4 calcium fluorescence; active compounds read high | 0.49% of 310,000 active | B-score at 10 µM | Short transient receptor potential channel 4 (Mus musculus), Q9QUQ5;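 active means B-score above 5 SD of library B-scores, and initial fluorescence ratio not above library mean plus 5 SD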;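 further: positive B-score marks a calcium rise read as TRPC4 activation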
#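 Incubation: 45 min room-temperature Fluo4 loading, 110 s read / System: HEK293 cells stably co-expressing mouse TRPC4beta and mu-opioid receptor / Signal: Fluo4 fluorescence, kinetic / Control set: buffer (low) and maximal DAMGO (high) / Measure: integrated baseline-normalised fluorescence ratio, converted to per-well B score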
# TRPC4 potent: positive allosteric modulators of TRPC4, primary screen, cell-based, mouse TRPC4beta, HEK293 mu-opioid, Fluo-4 calcium | Short transient receptor potential channel 4 (Mus musculus), Q9QUQ5 | DAMGO EC20, Fluo-4 Ca2+ flux; active compounds read high | B-score at 10 µM | 0.42% of 310,000 active;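 active means B-score of calcium response area above 5 SD of library B-scores, with initial fluorescence ratio within 5 SD of library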;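 further: B-score of integrated fluorescence ratio over time as area under calcium response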
# KCNQ1 block: inhibitors of human KCNQ1 channel, primary screen, cell-based, thallium flux, high-throughput. Potassium voltage-gated channel subfamily KQT member 1 (Homo sapiens), P51787. CHO-K1 KCNQ1, FluxOR thallium flux fluorescence; active compounds read high. B-score at 10 µM. 1.3% of 310,000 active;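 active means compounds whose thallium flux B-score, printed positive for inhibition, exceeds three library SD while starting fluorescence stays within three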;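 further: channel opened by potassium depolarization with thallium stimulus after 20 min compound exposure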
# KCNK9 block: KCNK9 potassium channel inhibitors, primary screen, HEK293 cells, thallium flux. Potassium channel subfamily K member 9 (Homo sapiens), Q9NPC2. FluxOR thallium flux fluorescence; active compounds read low. B-score at 10 µM. 1.2% of 310,000 active. AID 488922, 2010;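 active means ratio B-score over 3 SD below the library mean, with starting fluorescence within 5 SD of its mean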;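 further: negative B-score means less thallium flux so channel inhibition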
# KCNK3 block: human KCNK3 channel inhibitors, primary screen, CHO cells, FluxOR thallium flux, B-score; Potassium channel subfamily K member 3 (Homo sapiens), O14649; FluxOR fluorescence; active compounds read low; B-score at 10 µM; 0.84% of 340,000 active; AID 602410, 2012;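 active means B-score under library mean minus 4 SD, starting fluorescence ratio at most library mean plus 5 SD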;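 further: more negative B-score means stronger inhibition of thallium flux through KCNK3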
# ANO1 block: TMEM16A chloride channel inhibitors, primary screen, cell-based, HTS; AID 588511, 2011; HEK293 TMEM16A/YFP iodide influx fluorescence, ionomycin; 1.2% of 310,000 active; Anoctamin-1 (Mus musculus), Q8BHY3; normalized B-score (activity score, 25-100; higher = stronger inhibition) at 10 µM;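 active means ratio plate-corrected score three or more library SD toward inhibition, starting fluorescence score within five deviations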;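 further: score derived from kinetic fluorescence span divided by baseline fluorescence per well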
# KCNQ1 act: potentiators or activators of KCNQ1 channel, primary screen, cell-based, thallium flux, high-throughput; Potassium voltage-gated channel subfamily KQT member 1 (Homo sapiens), P51787; CHO-K1 KCNQ1, thallium flux FluxOR fluorescence; active compounds read high; B-score at 10 µM; 0.35% of 310,000 active;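 active means fluorescence ratio B-score, a plate-corrected score, at least three library SD, with initial intensity B-score within 5 SD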
#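 Material: CHO-K1 cells stably expressing KCNQ1. Medium: assay buffer for compound exposure, DMSO matched across wells. Reagent: K+/Tl+ depolarizing stimulus. Compound dosing: single-concentration screen. Times: 37 °C overnight plating, 90-min dark dye load, 20-min compound pretreatment. Technique: FluxOR Tl+ flux fluorescence.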
# HDAC3 inhib: HDAC3 deacetylase inhibitors, primary screen, biochemical, fluorescence, cell-free homogeneous | inhibition, % at 8.3 µM | 0.15% of 320,000 active | recombinant HDAC3, fluorogenic peptide/trypsin coupled | AID 2718, 2010; in the data active means inhibition above about 26%, passing the limit was not always enough; inconclusive means no clear call, values can overlap the other calls
# hERG protect: hERG rescue from dofetilide block, primary screen, cell-based, CHO-hERG, FluxOR thallium flux, dofetilide IC70; Voltage-gated inwardly rectifying potassium channel KCNH2 (Homo sapiens), Q12809; 0.51% of 310,000 active; activation (rescue from dofetilide block), less the hit threshold, % at 10 µM; dofetilide IC70 present;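 active means activation above the mean of controls blocked by dofetilide plus 5 SD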;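 further: thallium influx through hERG after potassium depolarization seen as dye fluorescence rise; in these data hits start at about 4.7%; inactives centre near -7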
# TMEM16A act: TMEM16A chloride channel activators or potentiators, primary screen, cell-based, HTS | Anoctamin-1 (Mus musculus), Q8BHY3 | B-score at 10 µM | HEK293 TMEM16A/YFP-H148Q/I152L, iodide quench fluorescence; active compounds read low | 0.3% of 340,000 active;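 active means fluorescence-ratio B-score plate-corrected deviation score at least 3 library SD below zero, with starting fluorescence score within 5 deviations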;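 further: channel opened by trigger with iodide after compound preincubation; score built on the fluorescence ratio of max minus min over baseline; more negative score means more quench and so TMEM16A activation or potentiation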
# Numbers without * were called inactive; i = inactive; u = inconclusive; x = not tested or not shown. An excerpt; count on the stated rates, not on these rows.
# Every second line gives: TRPC4 agonist	TRPC4 potent	KCNQ1 block	KCNK9 block	KCNK3 block	ANO1 block	KCNQ1 act	HDAC3 inhib	hERG protect	TMEM16A act
- CC(C)n1cnc2c(Nc3ccc(C(=O)O)cc3)nc(Cl)nc21
 : i	i	i	i	i	i	i	14.1	-9.0	i
- COc1ccc(-c2nnc(SCCC(=O)O)n2C)cc1OC
 : i	i	i	i	i	i	i	2.8	-6.5	i
- C=CCSc1nnc(NC(=O)c2ccc(S(=O)(=O)NCC3CCCO3)cc2)s1 (stereo unspecified)
 : i	i	i	i	i	i	i	-4.5	-6.7	i
- COCCn1nnnc1C(c1cc2c(C)cc(C)cc2[nH]c1=O)N1CCCCCC1 (stereo unspecified)
 : i	i	i	i	i	i	i	0.8	-9.4	i
- Cc1ccc2nc(NC(=O)C3CC(=O)N(Cc4ccco4)C3)sc2c1 (stereo unspecified)
 : i	i	i	i	i	i	i	-1.5	-10.7	i
- CCN(C(=O)CSc1nc2cc(C(=O)O)ccc2c(=O)n1Cc1ccccc1)c1ccccc1
 : i	i	i	i	i	i	i	x	-8.0	i
- NS(=O)(=O)c1ccc(-c2cccc(/C=C3\SC(=O)NC3=O)c2)cc1
 : i	i	i	i	i	i	i	u	-11.8	-4.86*
- Cc1ccc(S(=O)(=O)N2CCCC2C(=O)Nc2nc3ccccc3s2)cc1 (stereo unspecified)
 : i	i	i	i	i	i	i	x	-6.7	i
- CN1CCN(c2oc(/C=C/c3ccccc3)nc2C#N)CC1
 : i	i	i	i	i	i	i	-105.4	-8.0	i
- COc1ccc2nc(NC(=O)C3CCN(S(=O)(=O)c4cnc[nH]4)CC3)sc2c1
 : i	i	i	i	i	i	i	0.1	-6.8	i
- Cc1cc2c(Nc3cccc(O)c3)ncnc2s1
 : i	i	i	i	i	i	i	2.3	-3.4	i
- CC[C@H](CO)Nc1nc(Nc2cccc(Cl)c2)c2ncn(C(C)C)c2n1
 : i	i	i	i	i	i	i	1.4	-10.8	i
- Cc1c(/C=N/NC(=O)CNc2ccccc2)c2ccccn2c1C(=O)c1ccc(Cl)cc1
 : i	i	i	i	i	i	i	-6.8	-6.0	i
- N#CC1=C(O)CCCn2c1nc1ccccc1c2=O
 : i	i	i	i	i	i	i	-0.6	0.0	i
- COc1ccc(OC)c(C2NC(=O)NC(C)=C2C(=O)Nc2ccc(C)cc2C)c1 (stereo unspecified)
 : i	i	i	i	i	i	i	4.2	-6.3	i
- COC(=O)/C=C/c1oc2ccccc2c1C
 : i	i	i	i	i	i	i	6.8	-3.8	i
- COc1ccc2[nH]c(C(=O)O)c(NC(=O)c3ccccc3[N+](=O)[O-])c2c1
 : i	i	i	i	i	i	i	-4.2	-10.2	i
- COc1ccc(C2/C(=C(/O)c3ccc(F)cc3)C(=O)C(=O)N2CCCN2CCOCC2)cc1OC (stereo unspecified)
 : i	i	i	i	i	i	i	-3.7	-4.0	i
- O=C(Cc1n[nH]c(=O)c2ccccc12)OCC(=O)c1ccc2c(c1)OCCO2
 : i	i	i	i	i	i	i	6.1	-6.4	i
- COc1cccc(-c2nc(-c3ccc(NC(=O)c4ccncc4)cc3)no2)c1
 : i	i	i	i	i	i	i	-5.0	-20.0	i

# Single entries from the list:
# For hERG protect, `COc1ccc(OC)c(C2NC(=O)NC(C)=C2C(=O)Nc2ccc(C)cc2C)c1` (stereo unspecified) is entered as -6.3
# For hERG protect, `CC(C)n1cnc2c(Nc3ccc(C(=O)O)cc3)nc(Cl)nc21` is entered as -9.0
# For hERG protect, `CN1CCN(c2oc(/C=C/c3ccccc3)nc2C#N)CC1` is entered as -8.0
# For hERG protect, `C=CCSc1nnc(NC(=O)c2ccc(S(=O)(=O)NCC3CCCO3)cc2)s1` (stereo unspecified) is entered as -6.7

# (continued)
# Every second line gives: TRPC4 agonist	TRPC4 potent	KCNQ1 block	KCNK9 block	KCNK3 block	ANO1 block	KCNQ1 act	HDAC3 inhib	hERG protect	TMEM16A act
- O=C(O)c1ccc(-n2nnnc2Oc2cccc3cccnc23)cc1
 : i	i	i	i	i	i	i	1.5	-8.0	i
- CCc1cc(-c2n[nH]c(C)c2-c2nc(C)cs2)c(O)cc1OC
 : i	i	i	i	i	i	i	12.3	-15.4	i
- O=C(OC1CCN(c2ncc(C(F)(F)F)cc2Cl)CC1)c1ccc(Cl)cc1
 : i	i	i	i	i	i	i	-1.5	-9.2	i
- CCOc1ccc(NC(=O)C2CSC(c3ccncc3)=N2)cc1 (stereo unspecified)
 : i	i	i	i	i	i	i	-1.0	-5.6	i
- O=C(CN1CCOCC1)Nc1nc2ccc(Br)cc2s1
 : i	i	i	i	i	i	i	-1.1	-13.8	i
- CCOc1cc2[nH]c(=O)n(CCCC(=O)NCc3ccco3)c(=O)c2cc1OCC
 : i	i	i	i	i	i	i	10.7	-1.2	i

# An excerpt from above in order of length of the SMILES, highest first.
# Every second line gives: TRPC4 agonist	TRPC4 potent	KCNQ1 block	KCNK9 block	KCNK3 block	ANO1 block	KCNQ1 act	HDAC3 inhib	hERG protect	TMEM16A act
- CCOc1cc2[nH]c(=O)n(CCCC(=O)NCc3ccco3)c(=O)c2cc1OCC
 : i	i	i	i	i	i	i	10.7	-1.2	i
- O=C(O)c1ccc(-n2nnnc2Oc2cccc3cccnc23)cc1
 : i	i	i	i	i	i	i	1.5	-8.0	i
- O=C(CN1CCOCC1)Nc1nc2ccc(Br)cc2s1
 : i	i	i	i	i	i	i	-1.1	-13.8	i

# Source: PubChem BioAssay
